ClpP mod = qHTS Assay for Activators of ClpP. ATP-dependent Clp protease proteolytic subunit (Bacillus subtilis (strain 168)), P80244. purified B. subtilis ClpP, FRET peptide cleavage, 20 min. Potency, µM (top dose mostly 57.5 µM), for inactives: at the top dose activity change, negative = active. actives 1.9% (n = 340,000); active = well fitted falling curve with a large enough effect; inconclusive = small, poorly fitted or top-dose-only effect; inactive = no such curve, though single readings can be large or run the other way; note: potency is the fitted concentration of half-maximal effect; the source files actives as falling curves though it sought activators and does not explain the sign; nearly all actives have a fitted effect of over 65% in size; many hits overshoot -100%
Target sequence (P80244 whole entry, looked up): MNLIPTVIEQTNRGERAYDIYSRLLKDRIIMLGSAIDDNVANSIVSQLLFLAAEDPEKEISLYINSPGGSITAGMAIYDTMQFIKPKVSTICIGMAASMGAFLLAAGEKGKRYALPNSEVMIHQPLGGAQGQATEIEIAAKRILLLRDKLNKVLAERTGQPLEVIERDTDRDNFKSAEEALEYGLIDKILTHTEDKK
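ClpP 10 microg/mL final, pH 8 Tris/KCl buffer with BSA, glycerol, Tween-20; compound pinned in; FRET-FV substrate; RT 20 min; Ex320/Em430; ΔFRET vs ADEP 5.8 microM, DMSO, no enzyme.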
gsp antag = gsp mutant antagonism; Potency, µM (doses to about 76.9 µM), for inactives: top-dose activity change, negative = inhibition, hits mostly inhibitors; actives 0.4% (n = 340,000); AID 624288; gsp-mutant cells, cAMP HTRF, 30 min; control for the full effect not named in the record; active = falling curve of any shape with a large fitted effect; inconclusive = falling curve, mostly with a smaller effect; inactive = flat or rising curve; cell line not stated here;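 note: intracellular cAMP measured with PDE inhibitor Ro 20-1724 present during compound exposure; potency is the fitted concentration of half-maximal effect; % is set by controls: 0 for no effect and ±100 for the full control effect; nearly all actives have a fitted effect of over 65% in size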
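HTRF cAMP read-out (cAMP-d2 plus anti-cAMP antibody-K in lysis buffer, 30 min RT). Before lysis, cells are exposed to compounds with […] for 30 min at 37C in DPBS containing Ca/Mg, BSA and Tween 20.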
gsp ag = activates gsp, the McCune-Albright syndrome mutation; gsp mutant cells, cAMP HTRF, 30 min; control for the full effect not named in the record; Potency, µM (titrated, usually from 76.9 µM), for inactives: at the highest dose activation (cAMP increase), most hits filed as activators; actives 0.13% (n = 340,000); active = well fitted activation curve with a large enough effect; inconclusive = small, poorly fitted or top-dose-only effect, or another doubt; inactive = no such curve, though single readings can be large or run the other way; cell line not stated here;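 note: phosphodiesterase inhibitor Ro 20-1724 added with compounds to block cAMP breakdown; potency is the fitted concentration of half-maximal effect; nearly all actives have a fitted effect of over 60% in size; about a fifth of the inactives were tested at one dose only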
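Cells in DMEM/10% FBS with G418 were pretreated with compounds in DMSO plus […] (300 uM stock) for 30 min at 37C. cAMP was measured by HTRF (cAMP-d2 plus anti-cAMP antibody-K) after 30 min at room temperature.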
TRPML1 blocker = blocks the human TRPML1 channel; activity change, negative = inhibition, % (test concentration not listed); TRPML1-inducible cells, Ca2+ dye fluorescence, FDSS; stronger effect = lower value; inhibition of EC80 agonist-evoked calcium signal; actives 0.02% (n = 390,000); in the data active means activity change below about -50%; inconclusive means about -30% to -50%; inactive means above about -30%;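 note: stimulus is agonist 54-4 at its EC80 concentration; % is set by controls: 0 for no effect and ±100 for the full control effect; compound concentration not given in the record; the text of the record puts the active cut at -80%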
Target sequence (Q9GZU1 whole entry, looked up): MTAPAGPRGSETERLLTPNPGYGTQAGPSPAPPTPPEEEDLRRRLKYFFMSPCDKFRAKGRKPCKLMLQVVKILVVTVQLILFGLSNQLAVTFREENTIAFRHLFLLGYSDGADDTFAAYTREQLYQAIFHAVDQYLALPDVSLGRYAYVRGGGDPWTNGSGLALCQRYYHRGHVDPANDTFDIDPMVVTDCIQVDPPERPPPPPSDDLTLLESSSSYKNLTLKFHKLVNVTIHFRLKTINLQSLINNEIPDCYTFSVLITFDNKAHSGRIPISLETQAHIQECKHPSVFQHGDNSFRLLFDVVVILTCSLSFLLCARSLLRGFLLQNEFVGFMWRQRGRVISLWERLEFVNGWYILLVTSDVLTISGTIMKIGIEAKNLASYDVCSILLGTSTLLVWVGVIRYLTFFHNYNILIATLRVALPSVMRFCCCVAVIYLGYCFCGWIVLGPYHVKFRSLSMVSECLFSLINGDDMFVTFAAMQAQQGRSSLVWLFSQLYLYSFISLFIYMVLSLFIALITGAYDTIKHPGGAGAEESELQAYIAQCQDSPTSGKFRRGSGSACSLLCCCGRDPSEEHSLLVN
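TRPML1-DL cells, Tet-induced overnight (~16 h, 37 °C) at 1,500 cells/well, were loaded with Ca8 no-wash dye plus quencher for 45-90 min at room temperature. Compounds were pinned during FDSS kinetic reading; agonist 54-4 at EC80 (4 uM final) then added.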
Menin MLL FP FL = inhibitors of human menin-MLL interaction, wild-type MLL peptide; Fluorescence polarization, fluorescein-MLL peptide displacement from menin; 290,000 tested, under 10 active; AID 1766; FP activity change, % at 61.4 µM; inconclusive = falling polarisation curve, or a change in total fluorescence; inactive = total fluorescence flat and polarisation flat or rising; no compound was filed as active; the % refers to the polarisation; negative = inhibition;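 note: % of control where 0% means no effect; inhibitors lower the polarisation; unlabelled MLL peptide was the positive control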
TRPML1 ag = agonists of human TRPML1 channel; TRPML1-expressing cells, Ca2+ dye fluorescence, FDSS; host cell line not named in the record; reference of the full effect not given here; activation, % (concentration not given with the values); actives 0.12% (n = 410,000); AID 624414; in the data active = activation above about 50%; inconclusive = about 30% to 50%; inactive = below about 30%; note: 0% is about no effect; the text of the record puts the active cut at 80%
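TRPML1-DL cells, Tet-induced overnight (~16 h, 37 degrees C), loaded 45-90 min at room temperature with Ca8 no-wash calcium dye plus quencher. FDSS fluorescence: 10 s baseline, compound pin-transfer, 110 s agonist read, then EC80 54-4 (4uM final) and 110 s antagonist read.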
The depositor's hits bear a star; u = inconclusive; x = not tested or not shown; & = joins results of further samples; [ ] = dose if it differs, or a comment. Random draw from the library; 2.1% or so of the library scored in one or more.

SMILES	ClpP mod	gsp antag	gsp ag	TRPML1 blocker	Menin MLL FP FL	TRPML1 ag
Cn1c(C(=O)NCCCN2CCCCCC2)cc2c(=O)n(C)c3ccccc3c21	3.9%	2%	-6%	u	2.1	2.3
CCN1C(=NCCOC)N[C@@H](c2ccccc2)[C@H](C(=O)OC)[C@H]1C	-4.1%	7%	3%	7	-2.1	0.1
O=C(c1cccnc1Cl)N1CCOCC1	x	10%	-11%[15.4 µM]	-13	-0.6	-0.5
CCn1c(=O)c2ccccc2n2c(SCC(=O)N3CCc4ccccc4C3)nnc12	-3.3%	-10%	-16%	-5	2.3	1.8
Cc1c(C(=O)Nc2ccc3c(c2)OCCO3)cnn1C	x	2%	-3%	4	-0.9	1.5
Cc1nn(-c2ccccc2)c(C)c1/C=C/C(=O)OCC(=O)Nc1ncc(Cl)cc1Cl	24%	-12%	5%	12	-0.2	0.2
CN(C(=O)COC(=O)c1ccc2c(c1)OCO2)C1CCCCC1	x	-18%	-43%[inhibitor]	6	x	0.2
C=CCNc1nc(C(=O)OCC(=O)c2cccc(Br)c2)cs1	1.6%	2%	-9%	-7	x	-1.0
Cc1ccc([C@H]2C[C@@H](O)[C@H](n3cc(COC(=O)c4ccccc4)nn3)CN2Cc2cccs2)cc1	-2.9%	x	-89%[inhibitor]	0	x	1.8
NC(=O)c1ccsc1NC(=O)COC(=O)CSc1ccc(Cl)cc1	x	x	3%[15.4 µM]	4	5.5	1.5
CC(C)(C)NC(=O)CSc1nc2scc(-c3ccccc3)c2c(=O)[nH]1	2.0%	u	19%	-6	9.9	2.8
C=C1C2(C(=O)Nc3ccc(SC(F)F)cc3)CCC(C2)C1(C)C (stereo unspecified)	2.6%	-13%	16%	1	-2.3	5.7
COc1ccc(C2SCC(C(=O)O)N2C(C)=O)cc1 (stereo unspecified)	-0.6%	2%	u	0	-1.4	-0.4
CN(C(=O)Nc1ccc(Cl)cc1)c1c2c(nn1C)CCCC2	-1.0%	0%	2%	-5	-0.8	0.1
O=C(CCC(=O)N(CC(=O)NC1CCCCC1)c1ccccc1F)Nc1nccs1	1.2%	-2%	-13%[15.4 µM]	-8	5.9	-1.7
O=C(Cn1nc(C(F)(F)F)c2c1CCC2)NCc1ccc(F)cc1	-1.3%	2%	4%	1	-1.2	-0.1
O=C(Cc1ccc(Br)cc1)N1CCOCC1	-0.6%	-1%	16%[15.4 µM]	2	0.0	-0.1
COc1cc(C(=O)NCC(=O)N/N=C/c2ccc(OC(=O)c3ccco3)cc2)cc(OC)c1OC	x	x	4%[15.4 µM]	-11	-1.7	0.1
Cc1cc([N+](=O)[O-])nn1CCCC(=O)Nc1ccc2c(c1)OCO2	346%	-8%	-30%	-9	x	0.5
O=C(Cn1c(=O)c2cccn2c2cccnc21)N1CCN(c2ccc(Cl)cc2)CC1	-21%	u	26%	15	x	0.4
Fc1ccc(Nc2ccnc(C(F)(F)F)c2)cc1	0.9%	6%	25%	1	0.8	-0.1
CC(C)(C)NC(=O)C(c1cccs1)N(Cc1cccs1)C(=O)c1csnn1 (stereo unspecified)	2.8%	-17%	-22%	-1	0.3	3.3
Cc1c(C(=O)N/N=C/c2cccnc2)sc(N)c1C#N	x	10%	1%[15.4 µM]	4	-1.8	-0.1
COc1ccc(C(=O)N(C)Cc2ccccc2F)cc1S(=O)(=O)N1CCCC1	-0.1%	-10%	15%	16	x	-0.8
COc1ccc(-n2c(=S)[nH]c3cc(C(=O)NCc4cccnc4)ccc3c2=O)c(OC)c1	x	-11%	13%	20	5.8	0.3
(cont.)
SMILES	ClpP mod	gsp antag	gsp ag	TRPML1 blocker	Menin MLL FP FL	TRPML1 ag
CCSc1nc2c([nH]c3ccccc32)c(=O)n1C	-16%	3%	12%	-1	-1.0	-0.5
CC1CCC2(CC1)NC(=O)N(CC(=O)NCCc1ccccc1)C2=O (stereo unspecified)	x	6%	17%	4	x	1.3
CCOC(=O)c1ccc(S(=O)(=O)NNC(=O)Cc2csc(C)n2)cc1	-2.8%	3%	24%	2	x	0.6
COc1ccccc1C=Cc1ccnc2ccccc12	-0.2%	-16%	17%[15.4 µM]	6	x	0.8
O=C(Nc1cccc(Cl)c1)c1ccc(F)c(S(=O)(=O)N2CCN(c3ccccn3)CC2)c1	-16%	-3%	8%	20	3.7	-0.6
Cc1ccc(/C=C/C(=O)Nc2ccc3nc(N4CCC(C)CC4)cc(C)c3c2)cc1	0.0%	x	x	-7	x	0.5
COc1ccc(C2C/C(=N\O)C(C)(C)O2)cc1 (stereo unspecified)	0.3%	7%	-19%	-7	-0.6	0.4
Cc1ccc(C(=O)NCC(c2ccco2)N2CCOCC2)cc1 (stereo unspecified)	0.5%	11%	0%[15.4 µM]	1	x	-0.1
CC(=O)N1CCC2(CC1)C(C#N)=C(N)OC1=C2C(=O)CC(C)(C)C1	-0.1%	-13%	-4%	-7	-1.5	0.6
O=C(Nc1ccccc1)c1csc(-c2ccccc2)n1	x	-9%	0%[15.4 µM]	5	0.8	3.1
Cc1ccc(NC(=O)c2cc(S(=O)(=O)N3CCCC(C)C3)cn2C)c(Br)c1 (stereo unspecified)	44%	x	x	20	x	4.0
Cc1ccc(Oc2nc3ccccn3c(=O)c2/C=C(\C#N)C(=O)NC2CCS(=O)(=O)C2)c(C)c1 (stereo unspecified)	-0.3%	6%	-47%	6	x	1.0
COc1ccc(OC)c(C(=O)CSc2nccc(-c3ccc(Br)cc3)n2)c1	u	-8%	-12%	18	1.2	1.7
Brc1ccc2c(c1)[C@H]1OCC[C@H]1[C@@H](c1cccs1)N2	x	-28%	21%	3	2.7	1.4
N#Cc1c(-c2ccco2)cc(-c2ccccc2)[nH]c1=O	3.9%	-1%	u	-7	u	-0.8
COc1ccc(S(=O)(=O)c2cc(NS(=O)(=O)c3ccc(Cl)cc3)c(C)c(C)c2O)cc1	-0.8%	x	x	-1	x	0.1
COc1ccc(-c2nnc(SCC(=O)NNC(=O)c3ccc(C)cc3)o2)cc1	-1.4%	11%	18%	28	3.2	0.2
Cc1cc(NC(=O)c2ccc(Br)o2)cc(-c2nc3ccccc3o2)c1O	0.6%	x	x	10	x	4.6
O=C(COC(=O)COc1cccc(C(F)(F)F)c1)NC(=O)NC1CCCCC1	0.5%	7%	-17%	5	x	-0.6
COc1cc(C(=O)Nc2ccccc2SCc2cc(=O)n3nc(C)sc3n2)cc(OC)c1OC	-0.1%	-21%	-11%	-26	-6.9	0.5
CCC1CCCCN1C(=O)c1nn(-c2ccc(C)cc2)c(=O)c2c1c1ccccc1n2C (stereo unspecified)	-16%	x	x	50	x	1.6
Cc1oc2c(CN3CCCCC3C)c(O)ccc2c(=O)c1-c1ccc(Br)cc1 (stereo unspecified)	3.3%	-8%	24%	8	1.5	1.7
CSc1ccccc1C(=O)N1CCN(S(=O)(=O)c2sc(C(=O)O)c(C)c2C(=O)O)CC1	-2.4%	-1%	-27%	1	x	26
CCc1cc2c(=O)c(-c3nc4ccccc4n3C)c(C)oc2c(CN2CCCCC2)c1O	2.9%	-11%	-15%	1	-3.0	-0.8
CCCc1[nH]nc2c1C(Cc1ccccc1)C(C#N)=C(N)O2 (stereo unspecified)	-11%	-3%	-2%	-4	5.7	0.5

3 entries already listed, ordered by formula weight, rising:
SMILES	ClpP mod	gsp antag	gsp ag	TRPML1 blocker	Menin MLL FP FL	TRPML1 ag
Brc1ccc2c(c1)[C@H]1OCC[C@H]1[C@@H](c1cccs1)N2	x	-28%	21%	3	2.7	1.4
CCc1cc2c(=O)c(-c3nc4ccccc4n3C)c(C)oc2c(CN2CCCCC2)c1O	2.9%	-11%	-15%	1	-3.0	-0.8
Cc1oc2c(CN3CCCCC3C)c(O)ccc2c(=O)c1-c1ccc(Br)cc1 (stereo unspecified)	3.3%	-8%	24%	8	1.5	1.7

(continued)
SMILES	ClpP mod	gsp antag	gsp ag	TRPML1 blocker	Menin MLL FP FL	TRPML1 ag
COc1ccc(S(=O)(=O)Cc2ccc(C(=O)NCCc3ccc(S(N)(=O)=O)cc3)o2)cc1	-0.2%	-1%	1%	-6	-0.2	0.3
CCc1nnc(NC(=O)c2cc(-c3ccccc3)nn2-c2ccccc2)s1	-2.8%	4%	-10%	13	2.7	1.3
CCn1c(CNC(=O)c2ccco2)nnc1SCC(=O)Nc1ccccc1Cl	x	10%	u	-3	1.5	-0.6
CCCSc1nnc(NC(=O)c2nc(SC)ncc2Cl)s1	1.1%	u	-15%	-6	1.8	-0.2
Cc1ccc(-n2c3nc(=O)n(C)c(=O)c-3cc3ccccc32)cc1	x	-10%	u	-19	3.3	2.3
Cc1ccc(NC(=O)CSc2nnc(NC(=O)C(C)C)s2)c(C)c1	1.5%	-12%	-31%[inhibitor]	9	2.6	1.6
Cc1ccc(S(=O)(=O)NN/C(=N/S(=O)(=O)c2ccccc2)c2ccccc2)cc1	1.9%	-9%	-34%[inhibitor]	-13	-2.7	0.9
S=C(Nc1ccccc1)Nn1cnnc1	-3.0%	13%	18%	9	4.0	0.0
CC(C)(C)c1cc(C(=O)NC2CC2)n(Cc2ccc(F)cc2)n1	x	1%	-20%	-19	2.2	1.1
Cc1ccc(-n2nc(C(=O)N/N=C/c3cccc(C(F)(F)F)c3)c3ccccc3c2=O)cc1C	-1.9%	12%	16%	-20	0.6	-1.0
N#C/C(=C\Nc1ccc2cn[nH]c2c1)c1nc(-c2ccc(Cl)cc2)cs1	x	19%	-5%[15.4 µM]	11	8.1	-1.0
CC(=O)N1CCCC1c1nc2ccccc2n1Cc1cc(C)ccc1C (stereo unspecified)	-1.4%	x	x	-15	x	0.1
C=CCOC(=O)C1=C(C)NC(=O)NC1/C=C/c1ccccc1 (stereo unspecified)	1.2%	9%	-50%[inhibitor]	-4	-1.3	-0.8
COc1cccc(NC(=O)C2CCCN(S(=O)(=O)c3cccc4nonc34)C2)c1 (stereo unspecified)	1.3%	-3%	26%	32&-1	-7.5	0.8&-0.3
O=C(CC1CC2CCC1C2)N1CCN(S(=O)(=O)c2ccccc2C(F)(F)F)CC1 (stereo unspecified)	1.0%	-7%	-36%	1	x	2.1
O=C(Nc1ccc(OC(F)(F)F)cc1)C1=NCCN1	-1.0%	3%	u	12	-1.5	-0.4
Cc1ccc(NC(=O)Cn2c(=O)n(CCC(=O)NCc3ccccc3Cl)c(=O)c3ccccc32)cc1	-3.0%	x	x	-14	x	0.2
CC1=C(C(N)=O)C(c2cccc(Br)c2)n2nc(SCc3ccccc3Cl)nc2N1 (stereo unspecified)	-9.6%	x	x	-3	x	0.4
CCc1cc(=O)oc2cc(OCC(=O)N3CCC(C(N)=O)CC3)ccc12	4.5%	6%	x	x	-10	x
CCOC(=O)N1CCC(NC(=O)c2cnn(-c3ccc(C)cc3)c2-n2cccc2)CC1	-2.2%	x	x	-14	x	-0.2

Compound activity from PubChem.
